Bioassay records as filed in PubChem BioAssay.
PrP UTR inh: suppresses PrP 5' UTR mRNA reporter expression | cell-based PrP 5' UTR mRNA reporter, plate reader | inhibition, % (test concentration not listed) | 340,000 compounds, 0.35% hits | AID 488862;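 active means every replicate at 50% or more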;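 further: 0 = median of the neutral control wells; tested in H4 reporter cells; numbers are from one replicate; inactives centre near -14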
Mtb hypoxia inh: Mtb hypoxia fluorescent reporter inhibition. M. tuberculosis hypoxia-regulated fluorescent reporter, fluorescence. fluorescence inhibition, % (test concentration not listed). 300,000 compounds, 0.1% hits. AID 1159583;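 active means 35 to 45% if threefold the growth effect, above 45% if 1.5-fold the growth effect; inactive means the rest, general growth blockers included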;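 further: wells of about 50 µL received 100 nL stock; 0% = vehicle wells and 100% = reference inhibitor wells; whole bacteria with a GFP reporter of the hypoxia response; strong numbers were not always called active; many hits fall short of the cut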
BJeLR lethal: kills HRASV12-expressing BJeLR cells. inhibition, % (concentration not given with the values). BJeLR (HRASV12) viability, CellTiter-Glo ATP luminescence, 48 h; reference of the scale not given here. 300,000 compounds, 0.17% hits. AID 1554;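 active means replicate mean above 50%; inconclusive means above 50% but judged a plate artefact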;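 further: 50 nL library stock added to about 25 µL; numbers are from one replicate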
Sa RN4220 lethal: S. aureus RN4220 growth inhibition; AID 1259311; 330,000 compounds, 0.33% hits; inhibition, % (concentration not given with the values); OD600, 16 h;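 active means z-score of -3 or lower and OD600 up to 0.18 on both plates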;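 further: plate controls were untreated cells for no effect and reference antibiotic for full effect; stock transfer was 100 nL into about 80 µL; one replicate is shown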
Sa ugtP lethal: growth inhibition of S. aureus ugtP deletion strain; S. aureus RN4220 ugtP deletion, OD600 growth, 16 h; some inactives read as strong as hits; growth inhibition, % (test concentration not listed); 330,000 compounds, 0.54% hits; AID 1259309;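 active means z-score under -3 and OD600 up to 0.15 on both plates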;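 further: plate controls were untreated wells for no effect and antibiotic for full effect; wells of about 80 µL received 100 nL stock; the first replicate is given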
Autofluor counter: flagged as autofluorescent in microsphere protease counterscreen. compound autofluorescence counterscreen, microsphere flow cytometry; active compounds read high. fluorescence intensity (no concentration beside the values). 360,000 compounds, 3.1% hits. AID 624483;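 active means at least 3 SD above the mean of all compounds, about 16000 in these data; inconclusive means too few beads counted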;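 further: 100 nL of 1 mM stock went into each well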
Mtb hypoxia inh growth: also measured in Mtb hypoxia inh; calls as there; growth inhibition, %; measured here: M. tuberculosis growth (absorbance);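 0% = vehicle and 100% = reference antibiotic; read after six days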
Active calls of the source: *; u = inconclusive; x = no result given. Not a hit list, and some 4% of all compounds hit somewhere here.

Abbreviations: A = PrP UTR inh; B = Mtb hypoxia inh; C = Mtb hypoxia inh growth; D = BJeLR lethal; E = Sa RN4220 lethal; F = Sa ugtP lethal; G = Autofluor counter
O=C(NCC(c1ccc(F)cc1)N1CCOCC1)c1cccc(Br)c1 (configuration not stated)
  A: -5; B: 14; C: 17; D: -7; E: 1.9; F: 6; G: 3757
Cc1cc(C(=O)COC(=O)CC2Sc3ccccc3NC2=O)c(C)n1-c1ccc2c(c1)OCO2 (configuration not stated)
  A: -15; B: -4; C: 3; D: 16; E: 4.4; F: -19; G: 2658
Cc1ccc(C)c(S(=O)(=O)Nc2ccc3[nH]c(=O)[nH]c3c2)c1
  A: -20; B: 0; C: 6; D: -1; E: 0.5; F: 1; G: 3542
CCOc1ccc(-c2nnc(Nc3ccc(OC)c(C(=O)N4CCCCC4)c3)c3ccccc23)cc1
  A: -45; B: 0; C: 6; D: -1; E: 4.1; F: 0; G: 2387
CCc1ccc(Nc2n[n+](-c3ccccc3)c(-c3ccc(OCc4ccccc4)cc3)s2)cc1
  A: -5; B: x; C: x; D: 15; E: x; F: x; G: 3938
CCCCn1c2ccccc2c2nnc(SCCN3CCCCC3)nc21
  A: -15; B: 19; C: 7; D: 25; E: -3.5; F: 13; G: 3403
Cc1c(NC(=O)c2cc(=O)[nH]c(=O)[nH]2)c(=O)n(-c2ccccc2)n1C
  A: -20; B: 4; C: 3; D: -10; E: -0.5; F: -4; G: 9336
CC(=O)OC(C)[C@H]1CC[C@H]2[C@@H]3CC[C@H]4C[C@@H](OC(C)=O)CC[C@]4(C)C3=CC[C@]12C (some centres not stated)
  A: -17; B: x; C: x; D: -9; E: x; F: x; G: 3168
CN(C)c1cccc(C(=O)Nc2ccc(N3CCOCC3)cc2)c1
  A: -15; B: 2; C: 2; D: -4; E: -0.1; F: 7; G: 9135
NN/C(=C\[N+](=O)[O-])Nc1ccc(Cl)cc1
  A: -15; B: -7; C: 5; D: -3; E: 0.8; F: -4; G: 2432
CCOC(=O)C1(Cc2ccccc2C)CCCN(C(=O)CN2CCCCC2=O)C1 (configuration not stated)
  A: -35; B: 8; C: -2; D: -3; E: 3.4; F: 7; G: 4450
COc1ccc(OCC(=O)Nc2cccc(-c3nc4ccccc4o3)c2)cc1
  A: -31; B: 0; C: 3; D: 5; E: 4.9; F: -16; G: 10468
Cc1cc(=O)oc2cc(OCC(=O)NCCc3c[nH]c4ccc(F)cc34)ccc12
  A: -18; B: 8; C: -4; D: 2; E: 3.5; F: 9; G: 5285
CCC(C)Sc1ccc([C@H]2N[C@@](CC(C)C)(C(=O)OC)[C@H]3C(=O)N(CC)C(=O)[C@@H]23)cc1 (some centres not stated)
  A: -16; B: x; C: x; D: 9; E: x; F: x; G: 3651
O=C(N/C(=C/c1ccco1)C(=O)N1CCc2ccccc21)c1ccco1
  A: -5; B: 15; C: 2; D: -3; E: 3.0; F: 6; G: 5312
O=S(=O)(c1ccc(Br)cc1)N1CCN=C1SCc1cccc(F)c1
  A: 0; B: 4; C: 9; D: 6; E: 5.6; F: 0; G: 6008
Cc1cc(C(F)(F)F)c2c(n1)sc1c(O)cc(=O)[nH]c12
  A: -6; B: 12; C: -3; D: -7; E: 4.3; F: 11; G: 9041
Cc1ccc(S(=O)(=O)N2CCCC2CNC(=O)C(=O)Nc2ccccc2)cc1 (configuration not stated)
  A: -10; B: -4; C: 5; D: 0; E: -0.1; F: 6; G: x
CCOCc1nnc(NC(=O)C2c3ccccc3Oc3ccccc32)s1
  A: -21; B: 9; C: 4; D: -6; E: 2.9; F: 0; G: 2611
O=c1[nH]c(C(Cl)(Cl)Cl)nc2ccc3ccccc3c12
  A: -6; B: 0; C: -1; D: -5; E: 38; F: 35; G: 4466
CCc1ccc(CN2CCCC(C(=O)Nc3ccccc3-c3ccc(OC)cc3)C2)o1 (configuration not stated)
  A: 2; B: -1; C: -2; D: 2; E: 4.8; F: -6; G: 5674
CC(=O)c1cccc(NC(=S)N2CCCC2)c1
  A: -8; B: 12; C: 4; D: -13; E: 2.9; F: 12; G: 4424
Cc1cccc(C(=O)NC(NCCc2ccccc2)C(Cl)(Cl)Cl)c1 (configuration not stated)
  A: 14; B: 5; C: 1; D: -8; E: 0.7; F: 14; G: 3238
CC(=O)OCC1=C(C(=O)O)N2C(=O)C(NC(=O)c3ccc(COc4cccc(Cl)c4Cl)o3)C2SC1 (configuration not stated)
  A: -18; B: 8; C: 3; D: 1; E: 100*; F: 100*; G: 4141
Cc1ccc(-c2csc(NC(=O)c3ccc(C)o3)n2)cc1
  A: -22; B: 0; C: 5; D: -10; E: 8.8; F: 5; G: 2599

Three compounds out of the list, sorted by count of non-hydrogen atoms, smallest number first:
Abbreviations: A = PrP UTR inh; B = Mtb hypoxia inh; C = Mtb hypoxia inh growth; D = BJeLR lethal; E = Sa RN4220 lethal; F = Sa ugtP lethal; G = Autofluor counter
CC(=O)c1cccc(NC(=S)N2CCCC2)c1
  A: -8; B: 12; C: 4; D: -13; E: 2.9; F: 12; G: 4424
CN(C)c1cccc(C(=O)Nc2ccc(N3CCOCC3)cc2)c1
  A: -15; B: 2; C: 2; D: -4; E: -0.1; F: 7; G: 9135
O=C(NCC(c1ccc(F)cc1)N1CCOCC1)c1cccc(Br)c1 (configuration not stated)
  A: -5; B: 14; C: 17; D: -7; E: 1.9; F: 6; G: 3757

Carrying on.
Abbreviations: A = PrP UTR inh; B = Mtb hypoxia inh; C = Mtb hypoxia inh growth; D = BJeLR lethal; E = Sa RN4220 lethal; F = Sa ugtP lethal; G = Autofluor counter
O=c1cc(-c2ccc3c(c2)OCO3)oc2ccccc12
  A: -132; B: 1; C: -2; D: 7; E: 8.8; F: 1; G: 7669
Cc1cc(C)cc(N(CC(=O)NC2CCCC2)C(=O)C2(C)CC(=O)N=C3C=CC=CN32)c1 (configuration not stated)
  A: -12; B: -1; C: 1; D: -7; E: -2.1; F: 0; G: 4239
COC(=O)c1ccc(C2c3c(oc4ccccc4c3=O)C(=O)N2CCCN2CCOCC2)cc1 (configuration not stated)
  A: -6; B: x; C: x; D: -2; E: 6.6; F: 7; G: 5698
O=C(Nc1ccccc1-c1ccccc1)C12CC3CC(CC(C3)C1)C2
  A: -1; B: -4; C: -3; D: 14; E: -0.5; F: -3; G: 3030
Cn1c(=O)c2sccc2n2c(CCCC(=O)NCc3cccnc3)nnc12
  A: -3; B: 4; C: -1; D: 3; E: 4.9; F: 12; G: 4358
COc1ccc(COC(=O)C2CC(=O)N(Cc3ccc(C)cc3)C2)cc1 (configuration not stated)
  A: -3; B: 0; C: 0; D: -11; E: 3.2; F: 5; G: x
Cc1c(Cc2ccc3c(c2)OCO3)sc(NC(=O)c2ccc3ccccc3c2)c1C(N)=O
  A: x; B: 5; C: 6; D: -7; E: -10; F: -13; G: 5754
CCc1ccc(S(=O)(=O)/N=C2\C=C(Nc3cccc(C(=O)O)c3)C(=O)c3ccccc32)cc1
  A: -18; B: x; C: x; D: 6; E: x; F: x; G: 5137
Cc1cccc(/C=N/NC(=O)c2ccc(NC(=O)c3ccccc3Cl)cc2)n1
  A: -5; B: x; C: x; D: -5; E: x; F: x; G: 3524
COc1ccc(/C(N)=N/OC(=O)CCc2ccccc2)cc1OC
  A: -22; B: 3; C: 2; D: -8; E: 4.5; F: 8; G: 2094
COc1cc(C(=O)Nc2ccn(C)n2)ccc1OC(F)F
  A: -1; B: -3; C: -4; D: x; E: 3.4; F: 0; G: 8473
CCOC(=O)CSc1ncnc2c1cnn2-c1ccc(Cl)cc1
  A: -19; B: 18; C: 10; D: -3; E: 7.5; F: 9; G: 2965
Cc1c(C(=O)N(Cc2ccco2)Cc2cccs2)oc2ccccc12
  A: -21; B: 14; C: 5; D: x; E: 9.5; F: 17; G: 3842
Cc1ccc2[nH]c(=O)c3cc(C(=O)NCCN4CCN(C)CC4)sc3c2c1
  A: -10; B: x; C: x; D: -10; E: 2.1; F: -1; G: 5886
O=C(N/N=C/c1cccc(OC(=O)c2ccc([N+](=O)[O-])cc2)c1)c1cccnc1
  A: -18; B: x; C: x; D: 7; E: x; F: x; G: 5306
Cc1[nH]n(-c2ncc(-c3ccccc3)s2)c(=O)c1C(c1ccc(Cl)cc1)C(C#N)C#N (configuration not stated)
  A: -8; B: 4; C: -2; D: -11; E: 24; F: 6; G: 2495
CCc1ccc(C=NN2CCN(c3ccccn3)CC2)cc1
  A: x; B: -5; C: -12; D: x; E: 4.6; F: 0; G: x
Cc1ccc(C2C3C(=O)N(C)C(=O)C3[C@]3(C)C(=O)N(Cc4ccccn4)CC(=O)N23)o1 (some centres not stated)
  A: x; B: 0; C: 4; D: x; E: 5.5; F: -3; G: x
COc1cccc(N2CCN(C(=O)C3CCN(S(=O)(=O)c4ccc5c(c4)CC(C)N5C(C)=O)CC3)CC2)c1 (configuration not stated)
  A: -4; B: -4; C: 1; D: 0; E: 2.7; F: 3; G: 6038
Cc1ccc[n+](CC(=O)Nc2ccc(Cl)c([N+](=O)[O-])c2)c1
  A: -26; B: 13; C: 5; D: -4; E: 4.1; F: 11; G: 3778
COCCNC(=O)/C(C#N)=C/c1cc(C)n(-c2ccc(C)cc2)c1C
  A: -93; B: 13; C: 5; D: -1; E: -0.7; F: 1; G: 3750
COC/C=C/C1=CC2=CC(=O)C(C)(OC(=O)c3cnc4ccccc4n3)C(=O)C2=CN1CCCOC(C)C (configuration not stated)
  A: -38; B: x; C: x; D: -11; E: x; F: x; G: 3142
Cc1ccccc1-n1ccnc1SCC(=O)Nc1cccc(S(=O)(=O)NC2=NCCC2)c1
  A: -21; B: 9; C: 8; D: x; E: 1.0; F: -2; G: 3706
CCOc1ccc(Cn2nnc(C(=O)NCCc3ccccc3)c2N)cc1
  A: 21; B: x; C: x; D: -7; E: 1.1; F: -2; G: 6407
CN1C(=O)C2C(C=Cc3ccccc3)N3C(=O)CN(CCO)C(=O)[C@@]3(Cc3ccccc3)C2C1=O (some centres not stated)
  A: x; B: -3; C: 6; D: x; E: -0.4; F: -2; G: x
N/C(=N\OC(=O)C(c1ccccc1)c1ccccc1)c1ccccn1
  A: -26; B: x; C: x; D: -14; E: x; F: x; G: 3107
Cc1ccccc1NC(=O)C1CCN(C(=O)N2CCOc3ccccc32)CC1
  A: -7; B: 0; C: -2; D: -1; E: 6.4; F: 6; G: 5639
CC(C)(C)NC(=O)N1CCC(CO)(Cc2ccccc2Cl)CC1
  A: -32; B: -5; C: 4; D: -2; E: 4.8; F: 5; G: 3942
O=C(COC(=O)c1ccc(N2CCCC2=O)cc1)NCc1ccco1
  A: -17; B: 1; C: 4; D: -11; E: 3.2; F: 4; G: 3121
COc1cc(OC)c(C=NNC(=O)c2ccc(Cn3nc([N+](=O)[O-])cc3C)cc2)c(OC)c1
  A: x; B: 4; C: -6; D: x; E: 2.0; F: 4; G: x
CCOC(=O)c1c(S(=O)(=O)Nc2cccc(-c3ccno3)c2)c(C)n(C)c1C
  A: -15; B: 10; C: 4; D: -1; E: -2.5; F: 8; G: 4629
COc1cccc2c1O[C@H]1C(=O)CC[C@H]3CN(C)CCC231 (some centres not stated)
  A: -18; B: x; C: x; D: -12; E: x; F: x; G: 3605
COc1ccc(OC)c(C=NNC(=O)c2c(C)nc3ccc(C)cn23)c1
  A: x; B: 6; C: 3; D: x; E: 2.7; F: 3; G: x
CN(C1CCCCC1)S(=O)(=O)c1ccc(NC(=O)Cn2nc(-c3ccc(F)cc3)ccc2=O)cc1
  A: -7; B: -5; C: -2; D: -7; E: 27; F: 9; G: 2124
CCCCN=c1sc(C(=O)OC)cc(=O)n1CCCC
  A: -11; B: 10; C: 6; D: 0; E: 6.4; F: 27; G: 10628
COc1ccc2cc(C(C)=NNC(=O)C3CC3)ccc2c1
  A: x; B: 8; C: 5; D: x; E: 2.4; F: 1; G: x
CCOC(=O)N1CCN(C(=O)CSc2nc(=O)n3cc(C)ccc3n2)CC1
  A: -8; B: 1; C: 7; D: -6; E: 2.8; F: -3; G: u
Cc1ccc2ccccc2c1NC(=O)CNC1CCCCC1
  A: -3; B: 4; C: 3; D: 5; E: 1.8; F: 1; G: 9552
COc1ccc(CCNC(=O)c2cccc(C(=O)NCCc3ccc(OC)cc3)n2)cc1
  A: 2; B: 1; C: 7; D: 4; E: -0.6; F: 10; G: 4106
CCOC(=O)C1=CN(Cc2cccc(-c3ccc4c(c3)OCO4)c2)S(=O)(=O)N(C)C1C (configuration not stated)
  A: -21; B: 1; C: 4; D: x; E: 2.9; F: 27; G: 3686
CCN(CC(=O)NCc1cccs1)C(=O)c1ccc(S(=O)(=O)N(CC)c2ccccc2)cc1
  A: -9; B: 6; C: 2; D: x; E: 5.1; F: 2; G: 3869
